RE007 growth inh: less growth of the S. pombe RE007 Vpr strain. S. pombe RE007 Vpr strain, BacTiter-Glo ATP luminescence, 24 h; control for the full effect not named in the record. AID 651644. Potency, µM (top dose mostly 92.2 µM), for the others: top-dose activity change, negative = less growth. 360,000 tested, 0.21% active; active = well fitted falling curve with a large enough effect; inconclusive = small, poorly fitted or top-dose-only effect; inactive = no such curve, though single readings can be large or run the other way;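 also: % is scaled to controls: 0 for no effect and ±100 for the full control effect; nearly all actives have a fitted effect of over 50% in size; the assay follows cell death caused by Vpr and the record does not say whether a fall means rescue or toxicity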
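Fission yeast RE007 carrying one integrated HIV-1 vpr copy, seeded at OD 0.01 in PMG+AL medium with 23 nL pinned compound. Grown 24 h at 30 degrees; viability read by BacTiter-Glo luminescence after 5 min.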
StopGo reporter: FMDV 2A StopGo reporter, luciferase signal; human cells with a luciferase reporter of 2A StopGo recoding; control for the full effect not named in the record; Potency, µM (highest dose often 57.9 µM), without a hit: top-dose signal change, negative = less light; 410,000 tested, 1.2% active; AID 1159524; active = well fitted falling curve with a large enough effect; inconclusive = small, poorly fitted or top-dose-only effect; inactive = no such curve, though single readings can be large or run the other way; tested in HEK293T cells; also: % is scaled to controls: 0 for no effect and ±100 for the full control effect; nearly all actives have a fitted effect of over 45% in size; luciferase light after 4 h
NS1 function inh: blocks influenza NS1 protein function; S. cerevisiae slowed by influenza A NS1, growth recovery by OD600; Potency, µM (doses to about 46.1 µM), inactives show top-dose activity, positive = more growth; 270,000 tested, 0.4% active; AID 2326; active means well fitted rising curve with a large enough effect; inconclusive means small, poorly fitted or top-dose-only effect; inactive means no such curve, though single readings can be large or run the other way; also: nearly all actives have a fitted effect of over 50% in size
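S. cerevisiae expressing influenza A NS1, grown in glucose, washed, then diluted 1:100 into pH 6.0 -URA galactose medium with 23 nl compound. Growth recovery read as OD600; NS1-free strain serves as control.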
LASV entry inh: inhibitors of Lassa virus binding or cell entry; Lassa virus pseudotype entry inhibition, cell reporter; control for the full effect not named in the record; Potency, µM (titrated, usually from 37.9 µM), without a hit: at the highest dose activity change, negative = inhibition, actives largely listed as inhibitors; 300,000 tested, 1.2% active; active means well fitted inhibition curve with a large enough effect; inconclusive means small, poorly fitted or top-dose-only effect, or effect the other way; inactive means flat fitted curve, though single readings scatter; tested in HEK293 cells; also: % is scaled to controls: 0 for no effect and ±100 for the full control effect; nearly all actives have a fitted effect of over 50% in size; luciferase read-out
Cruzain noTriton: cruzain (T. cruzi) inhibition without detergent; Potency, µM, inactives show max response, negative = inhibition, actives largely listed as inhibitors; P25779; 200,000 tested, 2.3% active; purified cruzain, Z-FR-AMC fluorescence, no detergent;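 also: plate controls were enzyme without inhibitor for no effect and buffer without enzyme for full effect; nearly all actives have a fitted effect of over 40% in size; top concentration of the series not given in the record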
Target sequence (P25779 123-467 limits assumed): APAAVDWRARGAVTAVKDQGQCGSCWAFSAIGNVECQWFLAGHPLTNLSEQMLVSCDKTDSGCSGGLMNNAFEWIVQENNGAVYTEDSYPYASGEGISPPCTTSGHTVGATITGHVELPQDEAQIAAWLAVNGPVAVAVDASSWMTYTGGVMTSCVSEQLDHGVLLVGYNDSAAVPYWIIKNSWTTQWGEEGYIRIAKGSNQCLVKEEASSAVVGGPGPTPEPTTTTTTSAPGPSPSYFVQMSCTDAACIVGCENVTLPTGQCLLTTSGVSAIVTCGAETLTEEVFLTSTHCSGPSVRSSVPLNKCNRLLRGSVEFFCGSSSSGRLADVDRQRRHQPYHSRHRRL
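Detergent-free condition (0.00005% Triton X-100) in acetate buffer pH 5.5 with DTT. 1.5 nM enzyme and compound were pre-mixed 15 min, then 2 uM Z-FR-AMC substrate added; reaction progress from fluorescence change between first and third reads (60 s).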
Marburg entry inh: blocks Marburg virus binding to or entry into cells. Marburg virus pseudotyped entry inhibition, cell reporter; control for the full effect not named in the record; about a third of the inactives were read at about 46 µM. Potency, µM (titrated, usually from 37.8 µM), inactives show at the top dose activity change, negative = inhibition, hits mostly inhibitors. 300,000 tested, 1.8% active. AID 540276; active = well fitted inhibition curve with a large enough effect; inconclusive = small, poorly fitted or top-dose-only effect, or effect the other way; inactive = flat fitted curve, though single readings scatter; tested in HEK293 cells; about a fifth of its hits are not listed in these tables; also: % is scaled to controls: 0 for no effect and ±100 for the full control effect; luciferase read-out
Cruzain inh Det: blocks cruzain activity in presence of Triton detergent; Potency, µM, without a hit: max response, negative = inhibition, most hits filed as inhibitors; 200,000 tested, 0.43% active; AID 1478; purified cruzain, Z-FR-AMC fluorescence, 0.01% Triton; P25779;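 also: plate controls were neutral wells for no effect and buffer without enzyme for full effect; nearly all actives have a fitted effect of over 40% in size; top concentration of the series not given in the record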
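Z-FR-AMC hydrolysis (2 uM substrate) by cruzain (1.5 nM) monitored kinetically at ex 360/em 450 nm after 15 min room-temperature compound exposure; 0.01% Triton X-100, pH 5.5, 5 mM DTT.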
SARS PLP yeast: inhibitors of SARS-CoV papain-like protease in yeast | 330,000 tested, 0.19% active | AID 485353 | S. cerevisiae expressing SARS-CoV PLpro, growth rescue; control for the full effect not named in the record | Potency, µM (titrated, usually from 32.9 µM), inactives show top-dose activity, positive = growth rescue; active means well fitted rising curve with a large enough effect; inconclusive means small, poorly fitted or top-dose-only effect; inactive means no such curve, though single readings can be large or run the other way; also: 0% is about no effect; nearly all actives have a fitted effect of over 55% in size; growth read by luminescence after 48 h
* hit, by the source's call; [ ] = another dose, or the depositor's remark. Unless noted, calls follow the shape of the dose curve; as a rule, active = well fitted curve in the direction sought with a large enough effect; inconclusive = small, poorly fitted or top-dose-only effect, or another doubt; inactive = no such curve, though single readings can be large; an effect the other way counts as inactive or inconclusive. Potency is read from the fitted curve at half-maximal effect.

What do the screens show for `COc1ccc(CC(=O)NC2=NCCS2)cc1`?
RE007 growth inh: 15.6%; StopGo reporter: 14.4%; NS1 function inh: 12.1%; LASV entry inh: 11.4%; Cruzain noTriton: 4.1%; Marburg entry inh: 27.0%; Cruzain inh Det: 3.9%; SARS PLP yeast: -4.7%

How did CCOc1ccc(NC(=O)CCCn2c(C)c3cnn(-c4ccccc4)c(=O)c3c2C)cc1 do in these assays?
StopGo reporter: -18.9%; LASV entry inh: -0.9%[46.1 µM]; Cruzain noTriton: 8.1%; Marburg entry inh: -0.1%[46.1 µM]; Cruzain inh Det: -1.8%

Results for COc1ccccc1-c1noc(CCCC(=O)NC2CCCC2)n1 ?
RE007 growth inh: 4.2%; StopGo reporter: -8.3%; NS1 function inh: -9.9%; LASV entry inh: 4.6%[46.1 µM]; Marburg entry inh: inconclusive; SARS PLP yeast: 1.4%

Results for COc1ccc(C[C@H]2CN3C(=NC[C@H]3Cc3ccccc3)N2CCNC(=O)c2ccc(C)c(Br)c2)cc1 ?
RE007 growth inh: 8.0%; StopGo reporter: inconclusive; NS1 function inh: 4.0%; SARS PLP yeast: -3.7%

How did COc1cccc2cc(CC(=O)c3ccccc3)c(=O)oc12 do in these assays?
RE007 growth inh: 7.9%; StopGo reporter: 0.0%; NS1 function inh: 4.9%; SARS PLP yeast: 0.9%

How did CCCCN1C(=O)C(=O)N(CC(=O)NC2CCCc3ccccc32)C1=O (stereo not drawn) do in these assays?
RE007 growth inh: -18.0%; StopGo reporter: 18.5%; NS1 function inh: 3.9%; LASV entry inh: -15.3%; Marburg entry inh: -11.0%[14.2 µM]; SARS PLP yeast: 2.0%

How did Cc1ccc(CNC(=O)C2CCCN(C(=O)N(C)C)C2)cc1 (stereo not drawn) do in these assays?
RE007 growth inh: 10.4%; StopGo reporter: 25.5%; NS1 function inh: 13.7%; LASV entry inh: inconclusive; Cruzain noTriton: -9.6%; Marburg entry inh: 2.9%; Cruzain inh Det: 3.3%; SARS PLP yeast: -1.8%

What do the screens show for `Fc1ccc(C2Nc3cccc4cccc(c34)N2)cc1`?
RE007 growth inh: 6.7%; StopGo reporter: 44.1%[activator]; NS1 function inh: 4.0%; LASV entry inh: -12.0%[46.1 µM]; Marburg entry inh: 1.8%[46.1 µM]; SARS PLP yeast: 2.4%

What do the screens show for `Oc1ccc(CN2CCCc3ccccc32)c2cccnc12`?
RE007 growth inh: 22.4%; StopGo reporter: -2.9%; NS1 function inh: -55.2%; LASV entry inh: 4.47µM*; Cruzain noTriton: 25.1µM*; Marburg entry inh: inconclusive; Cruzain inh Det: -5.7%; SARS PLP yeast: 19.1%

What do the screens show for `COc1ccc(CNCC(O)(c2ccc(F)cc2)c2ccc(F)cc2)cc1OC`?
RE007 growth inh: -11.6%; StopGo reporter: inconclusive; NS1 function inh: -2.1%; SARS PLP yeast: -1.8%

Results for CS(=O)(=O)N1CCCC(C(=O)NCCCN2CCC(Cc3ccccc3)CC2)C1 (stereo not drawn) ?
RE007 growth inh: 6.0%; StopGo reporter: 1.8%; NS1 function inh: -0.5%; LASV entry inh: inconclusive; Cruzain noTriton: -9.0%; Marburg entry inh: -6.1%; Cruzain inh Det: 2.1%; SARS PLP yeast: 0.6%

What do the screens show for `CCc1nn2c(=O)cc(CSCC(=O)Nc3ccccc3Cl)nc2s1`?
RE007 growth inh: -1.7%; StopGo reporter: -23.3%; NS1 function inh: 15.4%; SARS PLP yeast: 18.2%

What do the screens show for `Cc1ccc(-n2c(SCC(=O)NCCN3C(=O)CSC3=O)nnc2-c2cccc(C)c2)cc1`?
RE007 growth inh: -6.9%; StopGo reporter: 0.0%; NS1 function inh: 1.2%; LASV entry inh: 3.9%; Cruzain noTriton: 17.6%; Marburg entry inh: inconclusive; Cruzain inh Det: -3.4%; SARS PLP yeast: -14.0%

What do the screens show for `CCOc1ccc(Nc2c3c(nc4ncnn24)CC(C)CC3)cc1` (stereo not drawn)?
RE007 growth inh: 17.5%; StopGo reporter: -24.4%; NS1 function inh: -8.1%; LASV entry inh: -13.5%; Cruzain noTriton: -10.0%; Marburg entry inh: -9.8%; Cruzain inh Det: -3.8%; SARS PLP yeast: 6.5%

Results for CC1CN1P(=O)(Oc1ccc2ccccc2c1)N1CC1C (stereo not drawn) ?
RE007 growth inh: -7.5%; StopGo reporter: -6.4%; LASV entry inh: -12.1%; Marburg entry inh: -17.3%

What do the screens show for `O=C(Cn1c(C(F)(F)F)nc2ccccc21)c1ccc(Br)cc1`?
RE007 growth inh: -1.0%; StopGo reporter: -25.7%; NS1 function inh: 14.8%; LASV entry inh: inconclusive; Cruzain noTriton: -10.1%; Marburg entry inh: inconclusive; Cruzain inh Det: -4.4%; SARS PLP yeast: 6.1%

How did COc1ccc(NC(=O)CCS(=O)(=O)c2nc(-c3ccc4c(c3)OCO4)cc(C(F)(F)F)n2)c(OC)c1 do in these assays?
StopGo reporter: -12.0%; LASV entry inh: 2.6%[46.1 µM]; Cruzain noTriton: 1.8%; Marburg entry inh: -10.2%[46.1 µM]; Cruzain inh Det: -5.4%

How did CCOc1cc(-c2nc(C)c(C(C)=O)n2O)ccc1OCC(=O)Nc1ccccc1 do in these assays?
RE007 growth inh: -20.6%; StopGo reporter: -14.2%; LASV entry inh: -9.4%[46.1 µM]; Marburg entry inh: -11.0%[46.1 µM]; SARS PLP yeast: -9.6%

How did Cc1ccc(C(=O)NNc2cc(N3CCCC3)nc(N3CCCC3)n2)cc1 do in these assays?
RE007 growth inh: 10.6%; StopGo reporter: -5.8%; NS1 function inh: -7.7%; LASV entry inh: inconclusive; Cruzain noTriton: -9.1%; Marburg entry inh: -11.5%; Cruzain inh Det: 0.9%; SARS PLP yeast: -6.6%

Results for Cc1cccc(C)c1OCc1cc(C(=O)N2CCN(Cc3nccn3C)CC2)no1 ?
RE007 growth inh: -12.1%; StopGo reporter: 5.9%; NS1 function inh: -5.4%; SARS PLP yeast: 1.7%

How did CN(C)Cc1ccccc1OC(=O)N(C)C do in these assays?
RE007 growth inh: -4.5%; StopGo reporter: -19.8%; NS1 function inh: -3.6%; LASV entry inh: 0.9%; Cruzain noTriton: -2.8%; Marburg entry inh: inconclusive; Cruzain inh Det: 4.2%; SARS PLP yeast: 2.6%

How did Cc1cc2nc(/N=C(\N)NC(=O)C(C)C)nc(C)c2cc1C do in these assays?
RE007 growth inh: -12.1%; StopGo reporter: -27.2%; NS1 function inh: -0.4%; LASV entry inh: inconclusive; Marburg entry inh: inconclusive; SARS PLP yeast: -1.0%

How did CC(=O)N1CCN(S(=O)(=O)c2c(C)n(C)c(=O)n(C)c2=O)CC1 do in these assays?
RE007 growth inh: 0.8%; StopGo reporter: -17.6%; NS1 function inh: 12.5%; LASV entry inh: -0.5%; Marburg entry inh: -1.0%; SARS PLP yeast: 19.2%

How did Cc1onc(-c2c(F)cccc2Cl)c1C(=O)OCC(=O)c1c(N)n(C)c(=O)n(C)c1=O do in these assays?
RE007 growth inh: 5.2%; StopGo reporter: 26.0%; LASV entry inh: 1.7%[46.1 µM]; Marburg entry inh: inconclusive; SARS PLP yeast: -1.6%

How did Cc1ccc2oc(=O)c(/C=C(\O)C(C)(C)C)nc2c1 do in these assays?
RE007 growth inh: -7.1%; StopGo reporter: -7.3%; LASV entry inh: -5.0%[46.1 µM]; Marburg entry inh: 13.7%[46.1 µM]; SARS PLP yeast: -5.1%

How did CC(C)Sc1nc(NCc2ccco2)c2c3c(sc2n1)COC(C)(C)C3 do in these assays?
RE007 growth inh: 17.0%; StopGo reporter: 19.4%; NS1 function inh: -58.3%; LASV entry inh: 15.4%; Cruzain noTriton: inconclusive; Marburg entry inh: 3.7%; Cruzain inh Det: inconclusive; SARS PLP yeast: -9.8%

What do the screens show for `Cc1ccc2nc(-c3ccccc3)oc(=O)c2c1`?
RE007 growth inh: -13.8%; StopGo reporter: 39.2%[activator]; NS1 function inh: -46.1%; SARS PLP yeast: -3.4%

How did O=C(Nc1ccncc1)c1cc2ccccc2cc1O do in these assays?
RE007 growth inh: -28.3%; StopGo reporter: -63.6%; LASV entry inh: inconclusive; Marburg entry inh: inconclusive; SARS PLP yeast: -23.4%

Results for CCO[C@@H]1OC(C(=O)NCc2ccccc2)=C[C@H](c2ccc(Br)cc2)[C@H]1CCCO ?
RE007 growth inh: 9.2%; StopGo reporter: -6.9%; NS1 function inh: 1.1%; SARS PLP yeast: 0.5%

Results for Cn1c(=NC(=O)CS(=O)(=O)c2ccc(F)cc2)sc2ccccc21 ?
RE007 growth inh: 9.8%; StopGo reporter: -6.0%; LASV entry inh: 4.7%; Marburg entry inh: 4.5%; SARS PLP yeast: -2.2%

What do the screens show for `CN(CC(=O)Nc1ccc(N2CCOCC2)cc1)C(=O)CSc1ccc(Br)cc1`?
RE007 growth inh: 1.4%; StopGo reporter: inconclusive; NS1 function inh: 6.4%; LASV entry inh: -16.1%; Marburg entry inh: 20.7%; SARS PLP yeast: 3.8%

How did COc1cccc(CNc2ccc(Br)cn2)c1O do in these assays?
RE007 growth inh: 14.5%; StopGo reporter: -16.6%; NS1 function inh: 1.4%; LASV entry inh: inconclusive; Cruzain noTriton: -8.7%; Marburg entry inh: inconclusive; Cruzain inh Det: -3.3%; SARS PLP yeast: -6.8%

What do the screens show for `Cc1ccc(NC(=O)CCCC(=O)O)c(-c2nc3ccccc3[nH]c2=O)c1`?
RE007 growth inh: 0.7%; StopGo reporter: 8.8%; NS1 function inh: -4.8%; SARS PLP yeast: -4.5%

What do the screens show for `O=C(NCc1ccc2c(c1)OCO2)c1n[nH]c(=O)c2ccccc12`?
RE007 growth inh: -24.8%; StopGo reporter: -8.9%; LASV entry inh: 0.3%; Marburg entry inh: -19.9%[14.2 µM]; SARS PLP yeast: -0.3%

Results for O=C(CSc1nc2ccccc2s1)N1CCOCC1 ?
RE007 growth inh: 10.8%; StopGo reporter: 66.9%[activator]; NS1 function inh: 5.8%; LASV entry inh: 8.7%; Cruzain noTriton: -5.0%; Marburg entry inh: inconclusive; Cruzain inh Det: -5.2%; SARS PLP yeast: 1.9%
